Assay outcomes: PubChem, National Center for Advancing Translational Sciences (NCATS)
HPGD inh = HPGD (human) dehydrogenase inhibition. Potency, µM, inactives show at the top dose activity change, negative = inhibition, hits mostly inhibitors. 150,000 compounds, 4.3% hits. purified HPGD, NADH fluorescence kinetic, PGE2 substrate; active = well fitted inhibition curve with a large enough effect (not every such curve was filed as active); inconclusive = small, poorly fitted or top-dose-only effect, or another doubt; inactive = no such curve, though single readings can be large or run the other way;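 also: top concentration of the series not given in the record; plate controls included wells without enzyme; inactives centre near -10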
Target sequence (P15428 whole entry, looked up): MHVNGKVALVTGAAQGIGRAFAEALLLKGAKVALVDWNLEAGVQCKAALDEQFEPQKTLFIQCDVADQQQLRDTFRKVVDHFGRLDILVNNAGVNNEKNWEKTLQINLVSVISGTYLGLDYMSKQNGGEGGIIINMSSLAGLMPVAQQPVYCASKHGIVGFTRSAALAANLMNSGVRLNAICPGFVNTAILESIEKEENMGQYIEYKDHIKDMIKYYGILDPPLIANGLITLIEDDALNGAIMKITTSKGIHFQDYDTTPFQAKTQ
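NADH formation kinetics: reaction with 30 uM PGE2 and 1 mM NAD+ (final), 20 nM enzyme, Tris-HCl pH 8 with Tween 20, after 15 min compound preincubation at room temperature. Fluorescence change, last versus first of five reads.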
The depositor's hits bear a star; ? = inconclusive; & = joins results of further samples. % is scaled to controls: 0 for no effect and ±100 for the full control effect; potency is read from the fitted curve at half-maximal effect. A portion of the library, so the mix of outcomes need not match the whole.

HPGD inh	smiles
?	O=C(/C=C/c1ccc(Cl)cc1)Nn1c(-c2cccs2)nc2ccccc2c1=O
?	O=c1[nH]c(-c2ccccn2)cc2ccccc12
0.7%	CCOc1ccc(NC(=O)C2=C(C)NC(=S)NC2c2ccc(O)c(OC)c2)cc1 (stereo not given)
-12.4%	Cc1ccc(C(C)C)c(OCCNC(=O)c2cncc(Br)c2)c1
-9.8%	Cc1nnc(SC(C)C(=O)Nc2ncc(Cl)cc2Cl)n1Cc1ccccc1 (stereo not given)
-11.4%	C=CCn1c(=O)c2c(nc3n2CCN3c2cccc(Cl)c2C)n(C)c1=O
-8.7%	O=C(CNc1ccccc1)N/N=C/c1ccc([N+](=O)[O-])o1
0.7%	Cc1ccccc1CS(=O)(=O)Cc1ccc(C(=O)NCCCN2CCOCC2)o1
-20.7%	CCN1CCN(c2nn3c(=O)c4ccccc4nc3c3ccccc23)CC1
-21.7%	O=C(c1ccco1)[C@@H]1[C@@H]2C(=O)N(c3ccc(F)cc3)C(=O)[C@@H]2[C@H]2C=Cc3ccccc3N21
-7.0%	COc1ccc(C(=O)[C@]2(C)C=C(c3ccc(OC)cc3)[C@H](C)C2)cc1
-15.3%	CCOC(=O)C1CCN(Cc2cccc(OC)c2)CC1
1.5%	COc1cccc(CN2C(=O)C3(C(C#N)=C(N)OC4=C3C(=O)CCC4)c3ccccc32)c1 (stereo not given)
-28.1%	CCc1ccc(/C=C2\Oc3cc(OC(=O)N4CCOCC4)ccc3C2=O)cc1
?	CCN1CCN(C(=O)c2cnn3c(C(F)F)cc(-c4ccc(C)cc4)nc23)CC1
-21.6%	CC1CCC(NS(=O)(=O)c2ccc3c(c2)n(C)c(=O)c(=O)n3C)CC1 (stereo not given)
-4.7%	CN1C(=O)NC(c2ccc(O)cc2)C(C(=O)c2cccs2)C1(O)C(F)(F)F (stereo not given)
?	CC(=O)N1CCN(C(=S)NC(=O)c2ccc(S(=O)(=O)N3CCOCC3)cc2)CC1
?	Clc1ccc(OCc2cn3cccnc3n2)c2ncccc12
-2.0%	O=C(Nc1cccc(C(=O)N2CCOCC2)c1)c1cccnc1
0.3%	COc1cc(NC(=O)c2c(F)cccc2F)nc(OC)n1
-23.2%	C=CCN1C(=O)/C(=C2/Sc3ccccc3N2CCCS(=O)(=O)O)SC1=S
?	O=C(N/N=C/CCc1ccccc1)c1ccc(CN2c3cccc4cccc(c34)S2(=O)=O)cc1
-9.0%	Cc1ccc(CNCc2ccccc2Cl)cc1
?	CCCCCCNc1nc(-c2ccc(OC)cc2)c(CCC(=O)O)s1
-4.8%	Cc1ccc2c(c1)CCCN2C(=O)C1CCCO1 (stereo not given)
-3.9%	CCn1c(=O)cc(OCC(=O)Nc2cc(C)ccn2)c2ccccc21
-13.9%&-5.9%	O=C1NCN(c2ccccc2)C12CCN(CCCC(c1ccc(F)cc1)c1ccc(F)cc1)CC2
-8.4%	CCOc1ccc(C2CC(c3ccc(F)cc3)Nc3nc(N)nn32)cc1 (stereo not given)
-21.7%	CC(C)(C)n1cnc2cc(NS(=O)(=O)c3ccc(Br)cc3)ccc21
0.2%	CCCC(c1nnnn1CCc1ccccc1)N1CCN(C2CCCC2)CC1 (stereo not given)
-3.6%	Cc1ccc(-c2csc(N3N=C(c4ccccc4)/C(=C\c4ccc(N(C)C)cc4)C3=O)n2)cc1

Some of the entries so far, in markdown.
| Structure | HPGD inh |
| --- | --- |
| O=C1NCN(c2ccccc2)C12CCN(CCCC(c1ccc(F)cc1)c1ccc(F)cc1)CC2 | -13.9%&-5.9% |
| CCOc1ccc(C2CC(c3ccc(F)cc3)Nc3nc(N)nn32)cc1 (stereo not given) | -8.4% |
| CC(C)(C)n1cnc2cc(NS(=O)(=O)c3ccc(Br)cc3)ccc21 | -21.7% |
| CCCC(c1nnnn1CCc1ccccc1)N1CCN(C2CCCC2)CC1 (stereo not given) | 0.2% |
| Cc1ccc(-c2csc(N3N=C(c4ccccc4)/C(=C\c4ccc(N(C)C)cc4)C3=O)n2)cc1 | -3.6% |

Next compounds
HPGD inh	smiles
-7.7%	O=S1(=O)CCC(S(=O)(=O)N2CCCCCC2)C1 (stereo not given)
-4.5%	O=C(COc1ccccc1)NC1CCN(Cc2ccccc2)CC1
-2.1%	Cc1[nH]n(-c2ccccc2)c(=O)c1S(=O)(=O)c1ccccc1
-3.1%	COC(=O)C1(C)C=C2C(=C(c3ccccc3)C(=O)C2C)CN1 (stereo not given)
4.6%	COc1ccc(C2C(C(=O)NCC3CCCO3)CCC(=O)N2c2ccc3c(c2)OCO3)cc1 (stereo not given)
-6.9%	CC(CN1CCCCC1)OC(=O)c1ccccc1Cl (stereo not given)
0.0%	COc1cccc(C2NC(CC(C)C)(C(=O)O)C3C(=O)N(Cc4ccccc4)C(=O)C23)c1O (stereo not given)
-22.5%	COC(=O)CSC1=C(C#N)C(=O)NC(c2ccccc2)S1 (stereo not given)
-5.3%	CCS(=O)(=O)c1ccc(O)c(N2C(=O)C3C4C=CC(C4)C3C2=O)c1 (stereo not given)
?	O=C1CCC(=O)N1c1cccc(-c2nc3ccccc3o2)c1
-12.1%	O=C(c1c(Cl)nc2sccn12)N1CCCc2ccccc21
?	CN1CCc2c(sc3c2C(=O)NC(c2cccc(OC(=O)c4cccs4)c2)N3)C1 (stereo not given)
-8.7%	COc1ccc(C(=O)c2coc3ccc(O)c(CN4CCOCC4)c23)cc1
-0.3%	COC(=O)c1ccc(NC(=O)c2ccc3c(c2)OCO3)cc1
-5.5%	Cc1ccc(C2=NN(C(=S)Nc3ccccc3)C(c3ccco3)C2)cc1 (stereo not given)
-3.8%	CCN(CC)c1ncccc1C(=O)NCc1cccs1
-15.2%	Cc1ccc(-n2nc3ccc(NC(=O)c4cccc([N+](=O)[O-])c4C)cc3n2)cc1
?	COCCN(C(=O)C(C)C)c1nnc(-c2cccc(C)c2)s1
3.0%	C=CCNC(=O)N1CCc2nc(COc3ccccc3)c3c(c2C1)CO[C@@H](C)C3
-6.7%	COC(=O)c1cc(NC(=O)CN2CCOCC2)cc(C(=O)OC)c1
-15.1%	CCOC(=O)c1c(-c2ccc(C)o2)csc1NC(=O)CSc1ncn[nH]1
-9.5%	Cc1ccccc1-c1nc(CN2CCC(C(=O)N3CCN(c4ccccn4)CC3)CC2)c(C)o1
-10.7%	O=C(O)CSc1nnc(-c2cccs2)n1-c1ccc(Cl)cc1
-6.8%	Cc1ccc(N2CCN(/N=C/c3sccc3C)CC2)cc1
2.7%	COc1cccc(-c2nnn(C/C(N)=N/O)n2)c1
-27.6%	Cc1scc(C(=O)N/N=C/c2ccsc2)c1C
-9.9%	O=C(NCc1ccccn1)c1cc(S(=O)(=O)N2CCN(c3ccccc3)CC2)ccc1Cl
1.5%	CCCC(=O)Nc1ccc(Cl)c(NC(=S)NC(=O)c2ccco2)c1
-5.4%	CSc1ccccc1NC(=O)c1onc(C)c1Cl
-15.0%	COc1ccc(Br)cc1C(=O)NCc1cccnc1
0.631µM*	CCc1cccc(CC)c1NC(=O)CO/N=C(\C)c1cccs1
-25.8%	COc1cccc(OC)c1C(=O)OCC(=O)Nc1ccc(OC(F)(F)F)cc1
-11.3%	CC(=O)N1CCN(CC(=O)Nc2c(Cl)cc(Cl)cc2Cl)CC1
-10.4%	CC(C)CC(NC(=O)C(CC(C)C)NC(=O)OC(C)(C)C)C(N)=O (stereo not given)
-25.8%	O=C(/C=C/c1ccco1)NC(=S)Nc1ccc(Cl)cn1
-3.8%	CCC(CC)C(=O)Nc1cccc(C(=O)NCc2ccco2)c1
-6.1%	O=C(CN1CCN(c2ccccc2)CC1)N1CCN(c2ccccc2)CC1
1.6%	COc1ccccc1C(c1nnnn1C(C)(C)C)N1CCN(C(=O)c2ccco2)CC1 (stereo not given)
-4.9%	O=C(CCc1ccc(S(=O)(=O)N2CCOCC2)cc1)NCCc1ccccn1
?	O=C(NC(=S)Nc1ccccc1Cl)c1csnn1

An excerpt from further up, as a working copy:
HPGD inh	smiles
?	O=C(/C=C/c1ccc(Cl)cc1)Nn1c(-c2cccs2)nc2ccccc2c1=O
?	O=c1[nH]c(-c2ccccn2)cc2ccccc12
0.7%	CCOc1ccc(NC(=O)C2=C(C)NC(=S)NC2c2ccc(O)c(OC)c2)cc1 (stereo not given)
-12.4%	Cc1ccc(C(C)C)c(OCCNC(=O)c2cncc(Br)c2)c1
-9.8%	Cc1nnc(SC(C)C(=O)Nc2ncc(Cl)cc2Cl)n1Cc1ccccc1 (stereo not given)

Structures listed above shown as hits in HPGD inh.
HPGD inh	smiles
0.631µM*	CCc1cccc(CC)c1NC(=O)CO/N=C(\C)c1cccs1

Next part.
HPGD inh	smiles
-4.7%	Cc1ccc2c(c1)N(CC(=O)NC1CCC(C)CC1)C(=O)CO2 (stereo not given)
-10.4%	O=C(CSc1nc(-c2ccccc2)cc(C(F)(F)F)n1)N1CCOCC1
-0.8%	CCC1CCCCN1CCn1c(=S)[nH]c2cc(OC)c(OC)cc2c1=O (stereo not given)
-18.7%	CCOC(=O)C(C)Oc1cccc2c(=O)n(CC(=O)Nc3ccc(OCC)cc3)ccc12 (stereo not given)
-19.4%	Cc1ncc(N=Nc2ccccc2)c(-c2ccccc2)n1
-12.0%	Cc1ccc(NC(=O)c2cccc(OCc3c(C)noc3C)c2)cc1
-7.4%	Cc1ccccc1-c1nc(CS(=O)CC(=O)NCCCN(C)c2ccccc2)c(C)o1 (stereo not given)
7.2%	COc1ccccc1-c1oc2ccccc2c(=O)c1OC
-4.0%	CC(=O)Nc1c(O)nc(SCC(=O)Nc2nnc(CC(C)C)s2)[nH]c1=O
22.4µM*	O=C(Nc1nc(=S)ss1)c1ccc(Cl)cc1Cl
0.1%	O=C(Cn1c(=O)sc2ccccc21)NCc1ccccn1
?	CCOC(=O)c1cnn(-c2nc(-c3ccccc3)cs2)c1C(F)(F)F
-9.2%	Cc1ccc(NC(=O)N2CCCC2C(=O)NCc2cccs2)cc1 (stereo not given)
-3.9%	CCOc1ccc(-c2nnc3ccc(SC)nn23)cc1
?	CC1=Nn2c(nc3sc4c(c3c2=O)CCCC4)SC1
?	CCCCCCCC(=O)N/N=C(\C)c1ccc(O)cc1O
-14.7%	COC(=O)c1ccc(-c2nc(-c3cccs3)no2)cc1
-19.1%	CC(C)N(Cc1nc(-c2ccc(Cl)cc2)no1)C(=O)CCC1CCCC1
-7.8%	CCc1nc2oc3cc(OC)ccc3c(=O)c2c(=O)n1-c1ccccc1
-19.7%	O=C(NCCc1ccccn1)c1cc(-c2ccccc2Cl)nc2ccccc12
-3.9%	CCOC(=O)c1sc2nc(C)nc(SCC(=O)NC(C)CCc3ccccc3)c2c1C (stereo not given)
?	CSc1nc(NCCOCCO)c2sc3nc(-c4ccco4)c4c(c3c2n1)CCC4
-3.9%	COc1ccc(CC(=O)NC(C)c2nnc(SCC(=O)Nc3nc(C)cs3)n2C)cc1 (stereo not given)
0.1%	Cc1cc(NC(=O)CN2CCCC(C)C2)n(-c2nc3ccccc3s2)n1 (stereo not given)
?	COCCNC(=S)N/N=C/c1ccc(N2CCOCC2)cc1
?	CCC(Sc1ccc2nnc(-c3ccc(F)cc3)n2n1)C(=O)O (stereo not given)
0.9%	Nn1c(SCC(=O)NCCC2=CCCCC2)nnc1C(F)(F)F
-4.8%	CCS(=O)(=O)c1nnnn1-c1ccccc1S(C)(=O)=O
-4.9%	O=C(CCNS(=O)(=O)c1cccc2nonc12)NC1CCCc2ccccc21 (stereo not given)
-12.1%	CCC1=C(OC(=O)N(CC)CC)N2C(=O)OC(=NCC(=O)OC)[C@]2(Cc2ccccc2)[C@H]2C1=CC[C@H]1C(=O)N(c3ccccc3)C(=O)[C@H]12
0.9%	O=C(CCCCn1c(=O)[nH]c2ccsc2c1=O)NCc1cccnc1
-15.7%	CCOC(=O)c1oc2ccccc2c1NC(=O)c1ccc(S(=O)(=O)N2CCCC2)cc1
-18.0%	O=C(c1ccc(COc2c(F)c(F)cc(F)c2F)o1)N1CCN(c2ccc(Cl)cc2)CC1
?	CC1CCN(S(=O)(=O)c2ccc3c(c2)C(=NO)c2cc(S(=O)(=O)N4CCC(C)CC4)ccc2-3)CC1
3.5%	CC1CCN(CCCCOc2ccccc2Br)CC1
-6.1%	Cc1cc(C)cc(N(CC(=O)NCc2ccco2)S(=O)(=O)c2c(C)noc2C)c1
-12.2%	CCN(CC)C(=O)N1CCC(NC(=O)c2ccccc2)CC1
-5.5%	O=C(COc1ccc2ccccc2c1)N/N=C/C1CC=CCC1 (stereo not given)
0.5%	CC12CC(c3ccccc3O1)C(/C(N)=N/NC(=O)c1ccc(F)cc1)C(=O)N2 (stereo not given)
-28.1%	COc1ccc(Br)cc1C(=O)Nc1cccc(C)c1C
-13.6%	COc1ccc(/C=N/NS(=O)(=O)c2ccc(C)cc2)cc1OC(=O)c1ccccc1
-11.6%	CC(=O)c1cccc(N(CC(=O)NCC2CCCO2)C(=O)CCC(=O)Nc2cc(C)on2)c1 (stereo not given)
-16.9%	O=C(Nc1cccc(C(F)(F)F)c1)NC1CCCCC1
?	COc1ccc2[nH]c3c(NCCN(C(C)C)C(C)C)ncnc3c2c1
-7.4%	Cc1oc(-c2ccccc2)nc1Cn1cccc1C1=NC(c2ccccc2)CO1 (stereo not given)
-8.7%	COc1ccc(N2CCN(S(=O)(=O)/C=C/c3ccccc3)CC2)cc1
-16.4%	NC(=O)N[C@H](CC(=O)O)C(=O)O
-11.4%	COc1cc(-c2nc(N)n[nH]2)cc(OC)c1OC
-5.1%	COc1ccc([N+](=O)[O-])cc1NC(=O)c1ccc(N(Cc2ccccc2Cl)S(C)(=O)=O)cc1
-6.7%	O=[N+]([O-])C(=C1Nc2ccccc2N1)/C(Cl)=C(/Cl)Br
-3.7%	CCCCc1nc2c(c3c1C[C@H](C)OC3)CN(S(=O)(=O)c1ccc(C)cc1)CC2
